AF4-AF9 inh – MLL-AF4/AF9 protein interaction inhibition | actives 0.47% (n = 350,000) | AlphaScreen, biotin-AF4 peptide binding to FLAG-AF9 | AID 651704 | inhibition, % at 10 µM | P42568;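 active = every replicate reaching a set inhibition limit, whatever the replicate mean, cut at about 25% in these data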;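 note: 0% = plate neutral control median and 100% = total signal loss; the record names both 10 and 1 µM as test concentration; the first replicate is given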
Target sequence (P42568 whole entry, looked up): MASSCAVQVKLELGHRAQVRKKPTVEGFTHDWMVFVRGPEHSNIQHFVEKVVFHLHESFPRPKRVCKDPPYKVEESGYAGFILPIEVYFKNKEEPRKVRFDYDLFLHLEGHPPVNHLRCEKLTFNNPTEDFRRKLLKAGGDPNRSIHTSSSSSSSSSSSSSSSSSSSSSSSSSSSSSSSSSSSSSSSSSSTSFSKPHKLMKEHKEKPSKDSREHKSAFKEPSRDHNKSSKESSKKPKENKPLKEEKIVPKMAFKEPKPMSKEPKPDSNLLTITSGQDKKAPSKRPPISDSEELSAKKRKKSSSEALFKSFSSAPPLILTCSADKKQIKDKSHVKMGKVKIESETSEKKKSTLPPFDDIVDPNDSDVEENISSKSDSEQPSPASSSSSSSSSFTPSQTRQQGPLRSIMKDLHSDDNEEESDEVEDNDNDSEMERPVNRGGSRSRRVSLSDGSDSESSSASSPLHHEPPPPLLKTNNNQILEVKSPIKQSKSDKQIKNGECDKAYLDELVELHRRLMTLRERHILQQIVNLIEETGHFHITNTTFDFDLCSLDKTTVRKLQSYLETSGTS
Numbers without * were called inactive; & = joins results of further samples. These rows are one share of the data; rates above refer to the full screens.

AF4-AF9 inh	Compound
-1.4	COCC#Cc1ccc2c(c1)O[C@H](CN(C)Cc1ccc3c(c1)OCO3)[C@H](C)CN([C@@H](C)CO)S2(=O)=O
-1.3	CN1C(=O)c2cc(NC(=O)c3ccc(F)cc3)ccc2OC[C@H]2O[C@H](CC(=O)NC3CCC3)CC[C@@H]21
4.6	N#C[C@H]1[C@@H](c2ccc(C#CCC3CCCC3)cc2)[C@H](CO)N1C(=O)c1ccccn1
-0.3	COc1ccccc1-c1cn(CC[C@H]2CC[C@@H](NC(=O)c3ccccc3F)[C@@H](CO)O2)nn1
-2.9	C[C@H]1CN([C@@H](C)CO)C(=O)c2cc(Br)cnc2O[C@H]1CN(C)C(=O)C1CCOCC1
1.6	C[C@H]1CN([C@@H](C)CO)S(=O)(=O)c2ccc(-c3ccncc3)cc2O[C@H]1CN(C)C(=O)c1ccc2c(c1)OCO2
-2.7	C[C@H]1CN([C@@H](C)CO)S(=O)(=O)c2ccc(/C=C/c3ccccc3)cc2O[C@H]1CN(C)C(=O)Nc1cccc(F)c1
-1.2	COCC(=O)N1[C@@H]2c3ccc(C4=CCCCC4)c(=O)n3C[C@@H]2[C@@H](CO)[C@@H]1C(=O)N1CCN(C)CC1
-2.8	CC(=O)Nc1ccc(-c2ccnc3c2CC(C(=O)NCc2cccc(Cl)c2)O3)cc1 (centres undefined)
-1.4	COc1ccccc1S(=O)(=O)Nc1ccc2c(c1)OC[C@H](C)NC[C@H](C)[C@H](OC)CN(C)C2=O
-0.8	CC(C)C#Cc1cnc2c(c1)C(=O)N([C@H](C)CO)C[C@H](C)[C@H](CN(C)Cc1ccc3c(c1)OCO3)O2
-4.8	O=C(NC1CCC1)[C@@H]1[C@@H](CO)[C@@H]2Cn3c(ccc(-c4ccc(F)cc4)c3=O)[C@H]1N2Cc1cocn1
-0.2	Cc1ccc(C=C2SC(=S)N(CCCC(=O)Nc3cccc(C(=O)O)c3)C2=O)cc1
-0.8	O=C(c1ccccc1F)N1CC(=O)N2[C@H](CO)[C@@H](c3ccc(C#Cc4ccc(F)cc4)cc3)[C@H]2C1
-3.5	C[C@@H]1CN([C@@H](C)CO)C(=O)CCCn2cc(nn2)CO[C@@H]1CN(C)C(=O)CCCN(C)C
-6.5	CO[C@@H]1CC[C@H]2CCOc3c(C#N)cccc3C(=O)N(C)C[C@H](C)C(=O)N(C)C[C@@H]1O2
-1.6	C[C@@H]1CCCCO[C@H](CN(C)C(=O)c2ccccc2)[C@@H](C)CN([C@H](C)CO)C(=O)c2cc(NS(=O)(=O)c3ccccc3)ccc2O1
-2.6	CN(C)C(=O)C[C@@H]1CC[C@@H]2[C@@H](COc3ccc(NC(=O)C4CCCC4)cc3C(=O)N2C)O1
-4.0	COc1ccc(C[C@@H]2CCn3cc(nn3)COC[C@@H](c3ccccc3)NC2=O)cc1
-0.1	COc1ccccc1NC(=O)N[C@H]1CC[C@@H](CCn2cc(C3(O)CCCC3)nn2)O[C@@H]1CO
-2.0	COCC(=O)N1[C@H](CO)[C@@H](c2ccccc2)[C@H]1CNC(=O)c1ccccn1
-1.0	C[C@@H]1CN([C@@H](C)CO)C(=O)c2cc(NC(=O)Nc3ccc(F)cc3)ccc2O[C@H]1CN(C)S(=O)(=O)c1cn(C)cn1
-1.0	CCCNC(=O)N[C@H]1C=C[C@H](CC(=O)NCCc2ccccc2)O[C@H]1CO
-1.6	C[C@H]1CN([C@@H](C)CO)C(=O)c2cc(NS(=O)(=O)c3ccc(Cl)cc3)ccc2O[C@@H]1CN(C)Cc1ccc(-c2ccccc2)cc1
1.1	COCC(=O)Nc1ccc2c(c1)OC[C@H](C)N(C(=O)c1ccccc1F)C[C@@H](C)[C@@H](OC)CN(C)C2=O
-3.6	CC(C)NC(=O)N(C)C[C@@H]1Oc2ccc(NC(=O)Nc3ccc(C(F)(F)F)cc3)cc2C(=O)N([C@H](C)CO)C[C@H]1C
2.3	Cc1cccc(C)c1NC(=O)C(c1ccc(C(F)(F)F)cc1)n1c(=O)c(-c2ccco2)nc2ccccc21 (centres undefined)
-0.6	CCCCn1c(N)c(N(C(=O)CSc2nnnn2-c2ccc(C)cc2)C2CCCC2)c(=O)[nH]c1=O
0.9	O=C(C[C@H]1C[C@@H]2c3cc(NS(=O)(=O)c4ccc(F)cc4)ccc3O[C@@H]2[C@H](CO)O1)NCCc1ccccc1
0.8	CO[C@H](CN(C)Cc1ccc(-c2ccccn2)cc1)[C@@H](C)CN(C(=O)Nc1ccc(F)cc1)[C@H](C)CO

3 of the entries above in order of the AF4-AF9 inh value, ascending.
AF4-AF9 inh	Compound
-3.5	C[C@@H]1CN([C@@H](C)CO)C(=O)CCCn2cc(nn2)CO[C@@H]1CN(C)C(=O)CCCN(C)C
-1.0	C[C@@H]1CN([C@@H](C)CO)C(=O)c2cc(NC(=O)Nc3ccc(F)cc3)ccc2O[C@H]1CN(C)S(=O)(=O)c1cn(C)cn1
-0.8	CC(C)C#Cc1cnc2c(c1)C(=O)N([C@H](C)CO)C[C@H](C)[C@H](CN(C)Cc1ccc3c(c1)OCO3)O2

Filtered by structure: the entries above containing a cyano group (2)
AF4-AF9 inh	Compound
4.6	N#C[C@H]1[C@@H](c2ccc(C#CCC3CCCC3)cc2)[C@H](CO)N1C(=O)c1ccccn1
-6.5	CO[C@@H]1CC[C@H]2CCOc3c(C#N)cccc3C(=O)N(C)C[C@H](C)C(=O)N(C)C[C@@H]1O2

(list continues)
AF4-AF9 inh	Compound
-2.1	C[C@@H]1CCCCO[C@H](CN(C)Cc2ccncc2)[C@@H](C)CN([C@H](C)CO)C(=O)c2cc(NS(=O)(=O)c3cn(C)cn3)ccc2O1
-4.4	C[C@@H]1CN([C@H](C)CO)C(=O)Cc2cc(NC(=O)NC3CCCCC3)ccc2O[C@H]1CN(C)S(=O)(=O)c1cn(C)cn1
-3.2	C[C@@H]1CN([C@@H](C)CO)C(=O)c2cc(-c3ccccc3)cnc2O[C@@H]1CN(C)C(=O)Cc1cccnc1
-5.2	COc1ccc(NC(=O)Nc2ccc3c(c2)C(=O)N([C@H](C)CO)C[C@@H](C)[C@@H](CN(C)C(=O)Nc2ccc(OC)cc2)OCCCC[C@@H](C)O3)cc1
2.9	C[C@@H]1CN([C@H](C)CO)C(=O)c2c(c3ccccc3n2C)-c2ccccc2CO[C@H]1CN(C)Cc1cccc(F)c1
-0.3	Cc1noc(C)c1S(=O)(=O)Nc1ccc2c(c1)C(=O)N([C@@H](C)CO)C[C@H](C)[C@@H](CN(C)C(=O)C1CCCCC1)OCCCC[C@@H](C)O2
-1.9	O=C(C1CCOCC1)N1C[C@@H]2[C@H](c3ccccc31)[C@@H](CO)N2C(=O)c1ccccc1
0.6	C[C@@H]1CCCCO[C@@H](CN(C)C(=O)CCCN(C)C)[C@H](C)CN([C@@H](C)CO)C(=O)c2cc(NC(=O)Nc3ccccc3)ccc2O1
-0.3	CC(=O)/C=C1\OCc2ccccc21
-3.2	CO[C@H](C(=O)N(C)C[C@@H]1OCc2ccccc2-c2c(n(C)c3ccccc23)C(=O)N([C@@H](C)CO)C[C@@H]1C)c1ccccc1
0.5	Nc1nc2ncccc2cc1C(=O)NCCc1cccs1
-0.8	COc1ccccc1-c1ccc([C@@H]2[C@@H](CO)N3CCCCN(C(=O)CN4CCOCC4)C[C@@H]23)cc1
-2.2	CCC(=O)N1[C@@H](C#N)[C@@H](c2ccccc2-c2ccccc2)[C@@H]1CO
-2.0	Cc1noc(C)c1S(=O)(=O)Nc1ccc2c(c1)C(=O)N([C@H](C)CO)C[C@H](C)[C@@H](CN(C)Cc1ccc(C(F)(F)F)cc1)O2
-1.0	CCC#CCN(Cc1ccccc1Br)[C@H](/C=C/c1ccccc1)[C@@H](O)Cc1ccccc1
9.5&12	CO[C@H]1CC[C@@H]2CCOc3c(C#N)cccc3C(=O)N(C)C[C@H](OC)[C@H](C)C(=O)N(C)C[C@@H]1O2
3.5	CCN1CC(=O)N2[C@@H](CO)[C@H](c3ccc(Br)cc3)[C@@H]2C1
-2.3	COc1ccc(S(=O)(=O)N(C)C[C@H]2OCCCC[C@@H](C)Oc3ccc(NS(=O)(=O)c4ccc(Cl)cc4)cc3C(=O)N([C@H](C)CO)C[C@@H]2C)cc1
-1.6	Cc1noc(C)c1NC(=O)N[C@@H]1CC[C@H](CCNC(=O)C2CCC2)O[C@H]1CO
4.3	CCCC#Cc1ccc([C@@H]2[C@H](CO)N3C(=O)CN(C(=O)c4cccnc4)C[C@@H]23)cc1
0.5	COc1cccc(S(=O)(=O)N2CCCCN3[C@H](CO)[C@H](c4ccc(-c5ccccc5)cc4)[C@H]3C2)c1
-1.3	C=CC1(C)CN(Cc2ccco2)S(=O)(=O)c2c(F)cccc2O1 (centres undefined)
2.9	CCN1CC(=O)N2[C@H](C1)[C@H](c1ccc(Br)cc1)[C@@H]2CO
-0.6	CCCC#Cc1ccc([C@H]2[C@@H](CO)N3C(=O)CN(C(=O)c4ccccc4)C[C@@H]23)cc1
1.6	O=C(c1cccc(F)c1)N1CCCCN2[C@H](CO)[C@@H](c3ccc(-c4ccc(F)cc4)cc3)[C@H]2C1
-1.2	Cc1ccc(F)cc1C(=O)N1CCCC(c2cc(C(=O)Nc3ccccc3Cl)no2)C1 (centres undefined)
1.0	Cc1noc(C)c1NC(=O)Nc1cccc2c1O[C@H](CN(C)Cc1ccccc1)[C@@H](C)CN([C@@H](C)CO)C2=O
2.1	CCS(=O)(=O)N1CCCCN2[C@H](CO)[C@H](c3ccc(-c4cccc(C#N)c4)cc3)[C@H]2C1
0.1	CCCCn1nnnc1C(c1ccccc1)N1CCN(CCN2CCOCC2)CC1 (centres undefined)
1.3	CC=Cc1ccc2n(c1=O)C[C@H]1[C@H](CO)[C@@H](C(=O)NCc3ccccn3)[C@@H]2N1CC1CC1 (mixture of isomers)
2.1	CC(C)C#Cc1ccc2c(c1)O[C@H](CN(C)C(=O)Nc1ccccc1)[C@@H](C)CN([C@H](C)CO)S2(=O)=O
-1.2	COc1ccc(NC(=O)N[C@H]2C=C[C@H](CC(=O)NCc3ccccn3)O[C@H]2CO)cc1
35*	CN(C)CC#Cc1ccc([C@H]2[C@H]3CN(C(=O)c4cccnc4)CC(=O)N3[C@H]2CO)cc1
-2.1	CCNC(=O)C[C@@H]1C=C[C@H](NC(=O)C2CCC2)[C@@H](CO)O1
-1.3	C[C@H](CO)N1C[C@H](C)[C@@H](CN(C)C(=O)c2ccc(F)cc2)Oc2ncc(C3=CCCC3)cc2C1=O
-2.0	CCCN1[C@@H]2c3ccc(-c4ccncc4)c(=O)n3C[C@@H]2[C@@H](CO)[C@@H]1C(=O)OC
-2.1	COc1ccc([C@H]2C[C@H](n3cc(-c4ccc(F)cc4)nn3)[C@@H](O)CN2C(=O)C2CCCCC2)cc1
-0.3	COc1cccc(-c2ccc([C@H]3[C@@H](CO)N4C(=O)CN(C(=O)c5ccncc5)C[C@@H]34)cc2)c1
4.6	COc1ccc(C#Cc2ccc([C@@H]3[C@@H](CO)N4C(=O)CN(C(=O)c5ccccc5)C[C@H]34)cc2)cc1
0.1	COc1ccc(S(=O)(=O)N(C)C[C@H]2Oc3ccc(NS(=O)(=O)c4c(C)noc4C)cc3CC(=O)N([C@@H](C)CO)C[C@@H]2C)cc1
1.3	Cc1cc(C(=O)Nc2cccc3c2O[C@@H](CN(C)C(=O)NC(C)C)[C@@H](C)CN([C@@H](C)CO)C3=O)n(C)n1
1.9	O=C(C[C@@H]1CC[C@@H]2[C@H](COC[C@H](O)CN2C(=O)Nc2ccc3c(c2)OCO3)O1)N1CCN(c2ccccc2)CC1
9.2	COc1ccc(C(c2c(NC(=O)c3ccco3)sc(C)c2C)N2CCOCC2)cc1OC (centres undefined)
16	CN(CCCCCCCCCCN(C)C(=O)Oc1cccc([N+](C)(C)C)c1)C(=O)Oc1cccc([N+](C)(C)C)c1
-1.2	CC=Cc1ccc2n(c1=O)C[C@H]1[C@H](CO)[C@@H](C(=O)NCCc3cn(C)cn3)N(C(=O)C3CC3)[C@@H]21 (mixture of isomers)
0.3	COc1ccc(NC(=O)N(C)C[C@@H]2Oc3ncc(-c4cccc(C(F)(F)F)c4)cc3C(=O)N([C@H](C)CO)C[C@@H]2C)cc1
-1.2	CCCC#Cc1cnc2c(c1)C(=O)N([C@@H](C)CO)C[C@H](C)[C@H](CN(C)C(=O)Nc1cc(F)ccc1F)O2
-1.4	CO[C@@H]1CN(C)C(=O)c2cc(NS(=O)(=O)c3c(C)noc3C)ccc2OC[C@@H](C)NC[C@@H]1C
-2.0	CC(C)NC(=O)Nc1cccc2c1O[C@H](CN(C)S(=O)(=O)c1cn(C)cn1)[C@H](C)CN([C@@H](C)CO)C2=O
-6.3	COc1ccc(S(=O)(=O)N2CC[C@@H]3[C@H](CO)Nc4ccc(C#Cc5cccc(OC)c5)cc4[C@@H]32)cc1
0.3	CO[C@H]1CN(C)C(=O)c2cc(NS(=O)(=O)CC(F)(F)F)ccc2OC[C@H](C)N(C)C[C@@H]1C
-1.7	CCOC(=O)C1=CCN(S(=O)(=O)c2ccccc2F)C1c1ccc(F)cc1 (centres undefined)
2.3	COc1ccc(S(=O)(=O)N(C)C[C@H]2Oc3ccc(NC(=O)Nc4ccccc4)cc3C(=O)N([C@@H](C)CO)C[C@@H]2C)cc1

No new results follow: an excerpt of the list.
AF4-AF9 inh	Compound
2.1	CC(C)C#Cc1ccc2c(c1)O[C@H](CN(C)C(=O)Nc1ccccc1)[C@@H](C)CN([C@H](C)CO)S2(=O)=O
-1.2	COc1ccc(NC(=O)N[C@H]2C=C[C@H](CC(=O)NCc3ccccn3)O[C@H]2CO)cc1
35*	CN(C)CC#Cc1ccc([C@H]2[C@H]3CN(C(=O)c4cccnc4)CC(=O)N3[C@H]2CO)cc1
-2.1	CCNC(=O)C[C@@H]1C=C[C@H](NC(=O)C2CCC2)[C@@H](CO)O1
-1.3	C[C@H](CO)N1C[C@H](C)[C@@H](CN(C)C(=O)c2ccc(F)cc2)Oc2ncc(C3=CCCC3)cc2C1=O
-2.0	CCCN1[C@@H]2c3ccc(-c4ccncc4)c(=O)n3C[C@@H]2[C@@H](CO)[C@@H]1C(=O)OC
-2.1	COc1ccc([C@H]2C[C@H](n3cc(-c4ccc(F)cc4)nn3)[C@@H](O)CN2C(=O)C2CCCCC2)cc1

Source: PubChem
